Six1-Eya2 blk: inhibitors of human Six1/Eya2 interaction; Q15475+O00167; AlphaScreen GST-Six1/His-Eya2 binding, biochemical; active compounds read low; control for the full effect not named in the record; activity change, % (no concentration beside the values); 360,000 tested, 0.56% active; in the data active = activity change below about -65%; inconclusive = about -30% to -65%; inactive = above about -30%; note: % is set by controls: 0 for no effect and ±100 for the full control effect
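AlphaScreen with GST-Six1 and His-Eya2 (5X mix: 250 nM and 500 nM), glutathione donor and nickel acceptor beads; buffer 50 mM Tris pH 8.0, 300 mM NaCl, 1 mM TCEP; 1 h at 37 C in the dark.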
TRPML1 ag: agonists of human TRPML1 channel | Q9GZU1 | activation, % (test concentration not listed) | TRPML1-expressing cells, Ca2+ dye fluorescence, FDSS; host cell line not named in the record; reference of the full effect not given here | 410,000 tested, 0.12% active; in the data active = activation above about 50%; inconclusive = about 30% to 50%; inactive = below about 30%; note: 0% is about no effect; the text of the record puts the active cut at 80%
Target sequence (Q9GZU1 whole entry, looked up): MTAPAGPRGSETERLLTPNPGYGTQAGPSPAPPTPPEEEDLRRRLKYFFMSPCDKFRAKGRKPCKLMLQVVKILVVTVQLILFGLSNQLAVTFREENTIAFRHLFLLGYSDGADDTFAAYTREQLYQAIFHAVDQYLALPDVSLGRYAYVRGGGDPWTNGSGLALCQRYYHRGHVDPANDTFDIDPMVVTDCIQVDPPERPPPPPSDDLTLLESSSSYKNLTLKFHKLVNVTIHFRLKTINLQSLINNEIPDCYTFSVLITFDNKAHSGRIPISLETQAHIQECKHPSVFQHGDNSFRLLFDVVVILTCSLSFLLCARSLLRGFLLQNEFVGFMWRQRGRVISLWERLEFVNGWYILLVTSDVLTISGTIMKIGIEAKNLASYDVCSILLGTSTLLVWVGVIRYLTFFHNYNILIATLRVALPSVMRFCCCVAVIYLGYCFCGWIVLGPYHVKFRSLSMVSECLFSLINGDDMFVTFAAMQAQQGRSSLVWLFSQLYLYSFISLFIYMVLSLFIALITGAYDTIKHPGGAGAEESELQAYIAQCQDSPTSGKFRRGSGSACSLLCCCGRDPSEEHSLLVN
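TRPML1-DL cells, Tet-induced overnight (~16 h, 37 degrees C), loaded 45-90 min at room temperature with Ca8 no-wash calcium dye plus quencher. FDSS fluorescence: 10 s baseline, compound pin-transfer, 110 s agonist read, then EC80 54-4 (4uM final) and 110 s antagonist read.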
PINK1 modulator: PINK1 expression modulation | PINK1 immunofluorescence, high-content cytometry, 24 h | Potency, µM (doses to about 76.6 µM), without a hit: at the highest dose activation (PINK1 increase), most hits filed as activators | 410,000 tested, 0.2% active | AID 624263; active = well fitted activation curve with a large enough effect; inconclusive = small, poorly fitted or top-dose-only effect; inactive = flat fitted curve, though single readings scatter; cell line not stated here;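 note: potency is the fitted concentration of half-maximal effect; % of control where 0% means no effect; nearly all actives have a fitted effect of over 65% in size; a mitochondrial uncoupler was the plate control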
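Decision-based qHTS: stable cells, 24 h exposure to five compound concentrations, CCCP as control. Fixed cells stained for PINK1 plus nuclear, mitochondrial and cell markers, cytometer read.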
TRPML1 inh: inhibitors of human TRPML1 channel; AID 624415; TRPML1-inducible cells, Ca2+ dye fluorescence, FDSS; active compounds read low; inhibition of EC80 agonist-evoked calcium signal; activity change, negative = inhibition, % (concentration not given with the values); 390,000 tested, 0.02% active; in the data active means activity change below about -50%; inconclusive means about -30% to -50%; inactive means above about -30%;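 note: stimulus is agonist 54-4 at its EC80 concentration; % is set by controls: 0 for no effect and ±100 for the full control effect; the text of the record puts the active cut at -80%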
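Tet-induced TRPML1-DL cells loaded with Ca8 no-wash calcium dye were read kinetically on FDSS. Compound addition was followed by EC80 agonist 54-4 (4 uM final); inhibition was read over 110 s.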
CtBP-E1A inh: blocks the CtBP interaction with E1A; AlphaScreen GST-E1A/His-CtBP binding, 1536-well; active compounds read low; control for the full effect not named in the record; activity change, % (no concentration beside the values); 340,000 tested, 0.49% active; AID 651724; in the data active means activity change below about -65%; inconclusive means about -30% to -65%; inactive means above about -30%; note: % is set by controls: 0 for no effect and ±100 for the full control effect
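AlphaScreen with 125 nM GST-E1A and 125 nM His-CtBP (5X stocks) in Tris pH 8.0, 300 mM NaCl, BSA, Tween 20, TCEP. Compounds preincubated 2 h at 37 deg C, then glutathione donor/nickel acceptor beads added for 1 h at 37 deg C in dark.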
D2 ag: activates the human D2 dopamine receptor | P14416 | DiscoveRx PathHunter D2 beta-arrestin, luminescence, 90 min; 100% = 57 uM dopamine signal | activation, % (concentration not given with the values) | 360,000 tested, 0.084% active; in the data active = activation above about 40%; inconclusive = about 15% to 40%; inactive = below about 15%; note: compound concentration not given in the record; the text of the record calls up to 30% inactive
Target sequence (P14416 whole entry, looked up): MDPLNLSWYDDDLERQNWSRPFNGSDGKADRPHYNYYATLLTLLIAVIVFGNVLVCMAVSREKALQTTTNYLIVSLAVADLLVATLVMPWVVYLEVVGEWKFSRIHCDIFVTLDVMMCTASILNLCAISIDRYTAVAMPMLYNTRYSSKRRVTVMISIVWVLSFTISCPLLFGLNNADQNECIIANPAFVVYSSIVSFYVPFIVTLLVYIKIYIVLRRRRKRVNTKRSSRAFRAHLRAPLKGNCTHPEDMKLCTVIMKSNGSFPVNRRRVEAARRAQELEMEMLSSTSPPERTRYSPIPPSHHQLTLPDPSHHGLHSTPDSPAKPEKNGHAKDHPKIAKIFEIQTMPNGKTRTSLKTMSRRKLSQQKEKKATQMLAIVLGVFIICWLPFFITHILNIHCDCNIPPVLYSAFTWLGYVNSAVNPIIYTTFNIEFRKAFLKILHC
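DiscoveRx PathHunter D2 beta-arrestin cells (2,100/well) attached overnight, then compound-stimulated 90 min at 37 C in HBSS/10 mM HEPES/0.1% Tween-20 buffer; beta-galactosidase complementation read by luminescence after 1 h at ambient temperature. Dopamine 57 uM final (EC100) as control.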
* = called active by the depositor; ? = inconclusive; . = not tested or not shown; [ ] = remark or other dose.

SMILES	Six1-Eya2 blk	TRPML1 ag	PINK1 modulator	TRPML1 inh	CtBP-E1A inh	D2 ag
CCCc1cc(=O)n2[nH]c(C(F)(F)F)nc2n1	5	0.0	0.8%	-13	4	-2.4
Cc1oc2c(C)c(O)ccc2c(=O)c1-c1cnn(-c2ccccc2)c1	-7	0.0	6.4%	2	-1	6.4
C/C(=N\NC(=O)Cc1ccc(Cl)cc1)c1ccccc1O	-3	-0.6	5.6%	10	-3	-1.2
C1=C(c2ccc(-c3ccccc3)cc2)Nc2ncnn2C1c1ccco1 (centres undefined)	-21	69*	18%	2	-2	5.4
O=C(CSc1ncnc2c1cnn2-c1ccccc1)NCC1CCCO1 (centres undefined)	0	0.2	9.2%	1	5	5.9
COc1ccc(NC(=O)CN2CCN(CC(=O)Nc3ccc(F)cc3)CC2)c(OC)c1	3	0.2	-1.4%	-22	1	1.0
Cc1nnc(SCc2ccc(Cl)cc2)nc1/C=C/N(C)C	-1	1.2	2.4%	7	.	-1.3
Nc1ncnc(NCc2ccccc2)c1[N+](=O)[O-]	-4	-0.2	-0.8%	19	-6	5.1
CCCc1c(C(=O)NNc2cccc(Cl)c2)cnn1-c1ccccc1	-3	-0.1	-1.2%	18	.	4.8
O=C(NCCCc1ccccc1)C1CCC(=O)N(Cc2ccc(Cl)cc2)C1 (centres undefined)	-3	0.0	2.0%	-8	12	-5.0
CC(O)CNc1nc2ccccc2n1CC(=O)N1CCN(Cc2ccccc2)CC1 (centres undefined)	-6	-0.8	2.4%	26	3	1.1
Cc1cccc(N(C(=O)Cn2nnc3ccccc32)C(C(=O)NC(C)(C)C)c2ccsc2)c1C (centres undefined)	-1	1.7	-0.5%[38.3 µM]	-5	-7	3.3
O=c1cc(-c2ccco2)oc2c1ccc1ccccc12	-20	0.6	-0.6%	13	-12	-2.8
Cc1ccc(S(=O)(=O)N2CCOCC2)cc1NC(=O)Cn1c(=O)ccn(Cc2ccccc2)c1=O	3	0.7	-0.5%	11	-4	-0.3
O=C(COC(=O)Cc1ccc(Br)cc1)Nc1c(F)c(F)c(F)c(F)c1F	1	0.2	1.1%	-12	0	-6.1
CCCn1cc(C(=O)OCC)c(=O)c2cc(F)c(F)cc21	-1	0.1	-0.6%	20	-2	3.3
CCOc1ccccc1/C=N/n1c(COc2ccccc2)n[nH]c1=S	-18	0.1	3.7%	-9	.	1.3
Cc1cc(N=NC(=O)c2ccccc2O)c2ccccc2c1O	?	4.4	?	1	?	-9.9
O=C(NCc1cccs1)C1CCN(C(=O)N2CCOc3ccccc32)CC1	.	0.0	-2.1%	7	.	.
COc1ccc2c(c1)CCc1c(C(=O)Nc3ccc(F)c(Cl)c3)noc1-2	.	-0.7	1.8%	-7	.	.
O=C(NC1CCCc2c1cnn2-c1ccc(F)cc1F)c1ccccc1N1CCOCC1 (centres undefined)	7	2.2	-1.8%	16	-3	-0.2
C=C1/C=C(\C)C(C)(O)CC(O)CC(=O)C(O)C(O)C(C)CC(C)OC(=O)/C(C)=C/CC/C=C/C(OC)C(O)CC(C)C1 (centres undefined)	-2	0.5	5.7%	-6	5	4.1
COc1ccc(-c2nc3ccccn3c2Cl)cc1	-3	0.7	0.0%	-6	3	10
O=C(Nc1ccccn1)c1ccc(COc2ccccc2Cl)o1	0	1.3	-0.8%	0	-3	0.0
O=C(NCCN1CCN(c2ccccc2)CC1)Nc1ccc(Cl)cc1	-16	-1.2	1.1%	-3	-7	7.1

(list continues)
SMILES	Six1-Eya2 blk	TRPML1 ag	PINK1 modulator	TRPML1 inh	CtBP-E1A inh	D2 ag
NS(=O)(=O)c1cc2c(cc1Cl)NC(CSCc1ccccc1)=NS2(=O)=O	-4	0.3	1.1%	12	6	-5.0
Cc1ccccc1C1NC(=O)c2ccccc2O1 (centres undefined)	10	-0.4	1.0%	-1	.	0.3
CC(Oc1ccccc1F)C(=O)NNC(=O)Cc1ccc(S(=O)(=O)N2CCOCC2)s1 (centres undefined)	3	0.5	-0.9%	6	0	?
OC(CCCN1CCCCC1)(c1ccccc1)c1ccc(C(F)(F)F)cc1 (centres undefined)	0	0.4	5.3%	-7	1	0.4
COCCN(C(=O)CSc1nnc(-c2ccc(Cl)cc2)o1)c1c(N)n(CC(C)C)c(=O)[nH]c1=O	5	0.0	6.4%	2	5	-1.8
Cc1ccc(C)c(NC(=S)Nc2cccnc2)c1	-8	0.0	-0.5%	13	-12	-3.0
CC(=O)N1CCN2C(=O)C1CCCC(=O)c1cc(C(C)C)ccc12 (centres undefined)	0	-0.3	2.7%	-1	7	-2.1
CCOc1ccc(NC(=O)CSc2nc3ccsc3c(=O)n2CC)cc1	.	2.3	-0.6%	-28	.	.
CCC(CC)NC(=O)c1ccc(Cl)cc1	1	-0.5	-0.8%	8	3	2.0
CC(C)CCOc1cccc(OCC(=O)O)c1	-2	-0.1	-0.8%	24	6	-0.5
NC(=O)C1Cc2ccccc2CN1C(=O)c1cc(C2CC2)nn1-c1ccccc1 (centres undefined)	-1	0.7	0.0%	0	2	3.8
COc1ccc(Cl)cc1NC(=O)COC(=O)C1CC(=O)N(Cc2ccccc2)C1 (centres undefined)	-2	-0.7	1.0%	-10	.	-2.4
Cc1cc(Cl)c2oc(C(=O)N(C)Cc3cc(C)[nH]n3)c(C)c2c1	1	0.5	5.6%	46	-6	1.6
Cc1nnc(SCC(=O)Nc2ccc([N+](=O)[O-])cc2)n1C	-5	.	1.2%	.	.	2.9
CCNC(=S)N(Cc1cc2c(C)ccc(C)c2[nH]c1=O)C1CCCC1	3	0.9	4.5%	-5	-22	0.2
CCC(C)(C)NC(=O)C(c1ccc(C)cc1)N(Cc1cccnc1)C(=O)c1csnn1 (centres undefined)	2	1.1	0.1%	-10	3	-3.9
CCOC(=O)c1c(-c2ccc(F)cc2)csc1NC(=O)CCN1C(=O)c2ccccc2C1=O	-4	1.6	-0.4%	-10	-1	-2.1
COC(=O)N/N=C/c1ccc(-c2ccc(Cl)c(Cl)c2)o1	6	1.8	9.2%	23	-2	1.6
O=C1Cc2ccccc2N1c1ccccc1	0	-0.4	0.4%	0	7	-4.6
Cc1nnc(SCC(=O)N(Cc2ccccc2)C(C)(C)C)[nH]c1=O	1	1.0	-0.4%	4	10	-0.1
CCCCc1sc(-c2c(C#N)c(N)nc3c2CCCCC3)cc1[N+](=O)[O-]	-1	4.3	7.0%[38.3 µM]	8	2	0.0
COCCOc1ccc(C(F)(F)F)cc1NC(=O)COC(=O)c1cc[n+]([O-])cc1	4	-0.6	2.7%	-15	7	1.9
CCOC(=O)c1[nH]c(C)c(C(=O)OCC(=O)N(CC)C2CCS(=O)(=O)C2)c1C (centres undefined)	3	0.6	-1.1%	7	6	-4.5
Cc1cc2cc(C#N)c(SCC(=O)Nc3nonc3C)nc2cc1C	0	5.4	?	-15	-6	-6.6
COc1ccc(C[C@@H]2CN3C(=NC[C@@H]3C)N2C[C@H](C)NC(=O)CCC2CCCCC2)cc1	0	0.4	1.0%	4	2	-3.4

Record cards, as listed above. Order of values: Six1-Eya2 blk | TRPML1 ag | PINK1 modulator | TRPML1 inh | CtBP-E1A inh | D2 ag
CC(C)CCOc1cccc(OCC(=O)O)c1 across the screens: -2 | -0.1 | -0.8% | 24 | 6 | -0.5
CC(=O)N1CCN2C(=O)C1CCCC(=O)c1cc(C(C)C)ccc12 (centres undefined) across the screens: 0 | -0.3 | 2.7% | -1 | 7 | -2.1

Further records
SMILES	Six1-Eya2 blk	TRPML1 ag	PINK1 modulator	TRPML1 inh	CtBP-E1A inh	D2 ag
O=C(c1ccco1)N1N=C(c2ccccc2)CC1c1ccc2nccnc2c1 (centres undefined)	?	0.1	-1.3%	0	-29	-0.5
Cc1cccc(C)c1NC(=S)N1CC(C)OC(C)C1 (centres undefined)	-4	-0.9	4.1%	8	5	-3.2
COc1ccc(NC(=O)Nc2ccc3c(c2)C(=O)N([C@H](C)CO)C[C@H](C)[C@@H](CN(C)C(=O)Nc2ccccc2)O3)cc1	?	0.0	1.1%	-3	-67*	0.3
O=C(NC1CCCCC1)c1ccc(Br)o1	2	-0.6	-0.9%	-3	-2	-2.0
Cc1cccc(C)c1NC(=O)C1(N(Cc2ccco2)C(=O)c2ccccn2)CCCC1	-1	-1.1	0.2%	0	2	-1.7
O=c1c2[nH]c3ccc(F)cc3c2ncn1Cc1ccncc1	-12	-0.8	1.7%	13	-16	-1.1
O=c1nc(N2CCOCC2)ccn1-c1nc(-c2ccccc2)sc1-c1ccccc1	-1	0.0	-1.7%	1	2	-1.6
COc1ccccc1CNC(=O)C/C(C)=N/NC(=O)Cc1ccc(Cl)cc1	13	0.2	-0.1%	9	0	-2.4
CCOc1ccc(C2C(=O)N(C3CCCCCC3)CC(=O)N2CCc2ccc(Cl)cc2)cc1OC (centres undefined)	.	0.4	1.2%	-20	.	.
Nc1ccccc1Sc1nc2ccccc2[nH]1	-19	-0.3	-0.7%	-14	3	-8.2
COC(=O)c1ccccc1NC(=O)Nc1cc(C(C)(C)C)on1	-10	0.7	0.6%	6	2	-2.6
CC(NC(=S)Nc1ccc(S(N)(=O)=O)cc1)c1ccc2c(c1)OCO2 (centres undefined)	-7	-0.6	-0.1%	7	2	-0.8
COc1cccc(NC(=O)C(C)n2c(=O)cc(C(F)(F)F)c3c(C)nn(C)c32)c1 (centres undefined)	.	2.1	4.4%	5	.	.
O=C(Nc1cccc(CNCCc2c[nH]c3ccccc23)c1)c1ccccc1Cl	-28	0.5	0.3%	0	.	-4.4
CCOC(=O)C(C)n1cnc2c(nnn2-c2cccc(Cl)c2)c1=O (centres undefined)	12	-0.3	1.5%	40	17	-1.9
CCN(CC)C(=O)[C@H]1C[C@H](CC(=O)NCc2cccc(C(F)(F)F)c2)C(=O)N2CCc3c([nH]c4ccc(Cl)cc34)[C@]12C	-7	2.9	?	-8	-2	0.2
CCN(CC(=O)Nc1c(F)cccc1F)C(=O)CNC(=O)c1ccco1	-2	-0.1	0.5%	10	9	0.9
O=C(O)c1ccccc1N/C=C\[N+](=O)[O-]	-14	0.0	0.9%	5	2	8.4

Arranged by SMILES length (falling): part of the list above.
SMILES	Six1-Eya2 blk	TRPML1 ag	PINK1 modulator	TRPML1 inh	CtBP-E1A inh	D2 ag
CCN(CC)C(=O)[C@H]1C[C@H](CC(=O)NCc2cccc(C(F)(F)F)c2)C(=O)N2CCc3c([nH]c4ccc(Cl)cc34)[C@]12C	-7	2.9	?	-8	-2	0.2
COc1cccc(NC(=O)C(C)n2c(=O)cc(C(F)(F)F)c3c(C)nn(C)c32)c1 (centres undefined)	.	2.1	4.4%	5	.	.
O=C(c1ccco1)N1N=C(c2ccccc2)CC1c1ccc2nccnc2c1 (centres undefined)	?	0.1	-1.3%	0	-29	-0.5
CCOC(=O)C(C)n1cnc2c(nnn2-c2cccc(Cl)c2)c1=O (centres undefined)	12	-0.3	1.5%	40	17	-1.9
